Assay outcomes: PubChem, several laboratories
Yeast UUG start: modulators of start codon recognition fidelity in yeast; S. cerevisiae UUG-firefly luciferase reporter, luminescence/redox ratio; activity score, % at 18.7 µM; hit rate 0.13% among 350,000;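 active = replicate mean at a twofold rise or more, about +100% in these data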;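 note: firefly luciferase made from a UUG start codon reports start codon fidelity; reporter light over untreated wells divided by growth signal over untreated wells; some hits fall short of that in this replicate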
HIV Env fusion: inhibitors of HIV Env-mediated cell fusion. HeLa-JRFL Env/CEM21 cell fusion, luciferase. inhibition, % at 12.3 µM. hit rate 1.1% among 360,000. AID 651610;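 active = mean replicate inhibition score of at least 50 and every replicate individually at or above 50; inconclusive = only one of the two criteria met; inactive = mean below 50 and not all replicates reaching 50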;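 note: 0% = plate neutral controls and 100% = maraviroc near 300 nM; one replicate is shown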
eIF4H FP inh: inhibitors of RNA binding by human eIF4H; inhibition, % at 35 µM; eIF4H fluorescence polarization binding assay; AID 2012; hit rate 0.94% among 290,000; Q15056;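 active = 50% or more with normal probe brightness, or confirmed in later tests; inconclusive = above 50% with abnormal brightness, or retests that disagree; inactive = below 50% or failed in later tests; about a fifth of its hits are not listed in these tables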;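 note: calls also rest on retests at 20 µM and on dose response follow-up; 0% = protein and probe with vehicle and 100% = probe without protein; strong numbers were not always called active; many hits fall short of the cut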
PABP polyA inh: blocks human PABP binding to poly(A) RNA | AID 2014 | hit rate 1% among 290,000 | inhibition, % at 35 µM | P11940 | fluorescence polarization;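 active = 50% or more with normal probe brightness, or confirmed in later tests; inconclusive = above 50% with abnormal brightness, or retests that disagree; inactive = below 50% or failed in later tests; about a fifth of its hits are not listed in these tables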;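 note: calls also rest on retests at 20 µM and on dose response follow-up; controls were probe without protein and protein plus probe with vehicle; some compounds called inactive have numbers as strong as hits; many hits fall short of the cut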
Rce1 inh: blocks yeast Ras-converting enzyme. Q03530. yeast membranes, quenched prenylated peptide cleavage fluorescence. calls only. hit rate 0.27% among 290,000;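 active = fall in fluorescence gain of 50% or more versus controls, with final raw signal at or below 3038400; inconclusive = same 50% fall but final raw signal above 3038400; inactive = fall in fluorescence gain under 50%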;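 note: plate controls were neutral control wells for no effect and wells lacking membranes for full effect; tested at 10 µM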
Target sequence (Q03530 whole entry, looked up): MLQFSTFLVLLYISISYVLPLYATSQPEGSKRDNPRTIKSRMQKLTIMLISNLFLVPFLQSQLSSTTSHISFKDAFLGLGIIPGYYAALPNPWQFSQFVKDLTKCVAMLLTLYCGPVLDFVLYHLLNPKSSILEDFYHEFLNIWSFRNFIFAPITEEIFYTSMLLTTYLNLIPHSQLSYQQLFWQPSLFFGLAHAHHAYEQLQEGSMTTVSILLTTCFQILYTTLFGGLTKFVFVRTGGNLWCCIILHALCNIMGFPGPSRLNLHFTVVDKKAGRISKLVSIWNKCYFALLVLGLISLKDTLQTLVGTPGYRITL
CSC inhib: cancer stem cell inhibition; cancer stem cell-like cells viability, luminescence; hit rate 1.1% among 300,000; inhibition, % at 7.5 µM;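 active = mean at 75% or more and at least half the replicates too; inconclusive = mean and replicates disagree; tested in HMLE shEcad cells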;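 note: 0% = median of negative and 100% = median of positive control wells; the first replicate is given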
MT1-MMP act inh: blocks activation of human MT1-MMP. hit rate 0.061% among 360,000. GFP/RFP ratio change, % at 20 µM. P50281. HT1080 RFP-PRO-GFP cells, GFP/RFP ratio fluorescence, overnight; percent of plate control window, DMSO zero;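 active = GFP/RFP ratio change of at least 30% with cell ATP level not reduced by more than half and red fluorescence within 50% of control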; note: strong numbers were not always called active
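Assay system: HT1080 cells carrying an RFP-PRO-GFP reporter | Dosing: Single dose of 20 µM compound, 1% DMSO final | Incubation: Cells overnight before dosing, compound overnight, 37 °C, 5% CO2 | Evaluation: GFP/RFP fluorescence ratio | Control set: DMSO and RFP-L50D-GFP cell wells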
MT1-MMP act inh RFP: further read-out of MT1-MMP act inh, marked with its call; RFP signal change, %; measured here: RFP expression control read;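 0 = vehicle wells; hits needed this value within 50% of zero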
* marks the source's active call; other numbers are inactive results; i = inactive; ? = inconclusive; nt = not tested or not shown; + = active, no number; & = joins results of further samples. A portion of the library; count on the stated rates, not on these rows.

SMILES	Yeast UUG start	HIV Env fusion	eIF4H FP inh	PABP polyA inh	Rce1 inh	CSC inhib	MT1-MMP act inh	MT1-MMP act inh RFP
CCn1nc(C)cc1C(=O)N1CCCC(C(=O)c2cccc(OC)c2)C1 (configuration not stated)	nt	10	3	10	i	-19	0	-3
COc1cc(C(C(=O)NC2CCCC2)N(C(=O)Cc2cccs2)C2CC2)cc(OC)c1OC (configuration not stated)	-5	-5	1	2	i	-5	-2	-1
C=CCc1c(C)nc(SCc2ccccc2)[nH]c1=O	-21	7	5	11	i	3	0	0
CC(C)c1ccc(S(=O)(=O)N2CCN(C(C)C(=O)Nc3ccccc3-c3ccccc3)CC2)cc1 (configuration not stated)	nt	22	-13	-2	i	14	-16	-15
Cn1cc(CNC(=O)CC2C(=O)NCCN2CC(C)(C)C)cn1 (configuration not stated)	-5	-10	16	20	i	3	1	-1
COc1cc(C(C(=O)NC2CCCC2)N(C(=O)c2snc(C(N)=O)c2N)c2ccccc2)cc(OC)c1OC (configuration not stated)	nt	7	6	-7	i	2	-3	0
COc1ccc(-c2csc(NC(=O)CN3C(=O)CCC3=O)n2)cc1	nt	14	0	-4	i	-5	3	6
O=C(COc1ccc(/C=C2/NC(=O)NC2=O)cc1)Nc1ccc(F)cc1	-9	-8	-10	10	i	-4	3	-2
COc1ccccc1CN1CC(C(=O)N(C)CCCn2nc(C)cc2C)CCC1=O (configuration not stated)	-12	-4	-10	1	i	-8	-8	2
COC(=O)c1cc(OC)c(OC)cc1NC(=O)c1cccc(OC)c1OC	nt	5	-7	-2	i	5	2	2
CC1CCc2c(nc3nc[nH]n3c2=O)C1 (configuration not stated)	-24	nt	0	2	i	22	4	1
O=C(NCC(F)(F)F)c1ccc(S(=O)(=O)NCCc2ccc3c(c2)OCCO3)cc1	6	1	nt	nt	nt	nt	2	-1
Cc1ccc(COc2ccc3c(c2)OCO3)cc1	-1	-165	-9	0	i	6	4	0
S=C(NC1CCCC1)N1CCN(c2ccccn2)CC1	-7	4	-7	20	i	-7	-1	0
CC(C)(C)c1ccc(C(=O)/C=C2\NC(=O)CS2)cc1	-19	nt	5	-18	i	7	0	0
Nn1c(SCC(=O)NCCCc2ccccc2)nnc1-c1cccnc1	-4	-42	-4	3	i	-12	0	3
O=C(O)CSc1cc(NS(=O)(=O)c2cccc([N+](=O)[O-])c2)c2ccccc2c1O	-25	1	-6	16	i	nt	-21	3
CCOc1cc(C(=O)NN=C2CCCC2)cc(OCC)c1OCC	4	4	0	5	i	0	-2	3
CCN(C[C@H]1N[C@@](Cc2ccccc2)(C(=O)OC)[C@H]2C(=O)N(Cc3ccccc3)C(=O)[C@@H]12)S(=O)(=O)c1ccc(C(C)(C)C)cc1	-29	?	nt	nt	nt	5	-6	-7
CN1C(=O)S/C(=C/c2ccc(OCc3cccc(C(=O)O)c3)cc2)C1=O	-18	8	8	7	nt	-6	6	4
O=c1c2c(nc3n1CCCCC3)-c1ccccc1CC21CCCC1	-27	nt	3	18	i	93*	3	-5
CCOC(=O)c1cnc(-n2nc(C)cc2C)nc1Nc1cccc(C(C)=O)c1	-28	-8	nt	nt	i	-10	3	1
CCCc1cc(=O)[nH]c(SCC(=O)N2CCCc3ccccc32)n1	nt	-2	-1	8	i	-2	-11	1
N#CC(C#N)=Cc1c(N2CCN(c3ccccc3)CC2)nc2ccccn2c1=O	8	-3	2	4	i	-8	-1	-1
c1ccc2c(c1)nc(N1CCOCC1)c1ccccc12	nt	-21	-2	18	i	-3	0	4
CCCC1(C(=O)OCC)NC(c2ccc(O)cc2)C2C(=O)N(c3cccc(C(C)=O)c3)C(=O)C21 (configuration not stated)	-5	1	-8	9	i	-12	0	1
COc1cccc(NC(=O)Nc2nnc(N3CCCCC3C)s2)c1 (configuration not stated)	-8	26	1	10	i	4	-3	-7
CCCCCc1nnc(NC(=O)C2=COCCO2)s1	-25	-32	nt	nt	i	-6	1	2
O=C(c1ccc(Br)cc1)c1cc([N+](=O)[O-])ccc1N1CCOCC1	nt	-3	-4	-7	i	67	1	-11
CN(C(=O)CN1C(=O)NC2(CCc3ccccc32)C1=O)C1CCS(=O)(=O)C1 (configuration not stated)	-2	-33	nt	nt	i	-8	-4	2

A different layout for part of the listing above:
COc1cccc(NC(=O)Nc2nnc(N3CCCCC3C)s2)c1 (configuration not stated)
- Yeast UUG start: -8
- HIV Env fusion: 26
- eIF4H FP inh: 1
- PABP polyA inh: 10
- Rce1 inh: i
- CSC inhib: 4
- MT1-MMP act inh: -3
- MT1-MMP act inh RFP: -7
CCCCCc1nnc(NC(=O)C2=COCCO2)s1
- Yeast UUG start: -25
- HIV Env fusion: -32
- eIF4H FP inh: nt
- PABP polyA inh: nt
- Rce1 inh: i
- CSC inhib: -6
- MT1-MMP act inh: 1
- MT1-MMP act inh RFP: 2
O=C(c1ccc(Br)cc1)c1cc([N+](=O)[O-])ccc1N1CCOCC1
- Yeast UUG start: nt
- HIV Env fusion: -3
- eIF4H FP inh: -4
- PABP polyA inh: -7
- Rce1 inh: i
- CSC inhib: 67
- MT1-MMP act inh: 1
- MT1-MMP act inh RFP: -11
CN(C(=O)CN1C(=O)NC2(CCc3ccccc32)C1=O)C1CCS(=O)(=O)C1 (configuration not stated)
- Yeast UUG start: -2
- HIV Env fusion: -33
- eIF4H FP inh: nt
- PABP polyA inh: nt
- Rce1 inh: i
- CSC inhib: -8
- MT1-MMP act inh: -4
- MT1-MMP act inh RFP: 2

Among those listed so far, these have an NH in an aromatic ring.
SMILES	Yeast UUG start	HIV Env fusion	eIF4H FP inh	PABP polyA inh	Rce1 inh	CSC inhib	MT1-MMP act inh	MT1-MMP act inh RFP
C=CCc1c(C)nc(SCc2ccccc2)[nH]c1=O	-21	7	5	11	i	3	0	0
CC1CCc2c(nc3nc[nH]n3c2=O)C1 (configuration not stated)	-24	nt	0	2	i	22	4	1
CCCc1cc(=O)[nH]c(SCC(=O)N2CCCc3ccccc32)n1	nt	-2	-1	8	i	-2	-11	1

Back to the main list, repeating the four entries before the break.
SMILES	Yeast UUG start	HIV Env fusion	eIF4H FP inh	PABP polyA inh	Rce1 inh	CSC inhib	MT1-MMP act inh	MT1-MMP act inh RFP
COc1cccc(NC(=O)Nc2nnc(N3CCCCC3C)s2)c1 (configuration not stated)	-8	26	1	10	i	4	-3	-7
CCCCCc1nnc(NC(=O)C2=COCCO2)s1	-25	-32	nt	nt	i	-6	1	2
O=C(c1ccc(Br)cc1)c1cc([N+](=O)[O-])ccc1N1CCOCC1	nt	-3	-4	-7	i	67	1	-11
CN(C(=O)CN1C(=O)NC2(CCc3ccccc32)C1=O)C1CCS(=O)(=O)C1 (configuration not stated)	-2	-33	nt	nt	i	-8	-4	2
COc1ccc(C(C)NC(=S)NC2CCCC2)cc1OC (configuration not stated)	-21	-29	-4	1	i	-9	0	0
CC(=O)N[C@@H]1c2c(ccc3ccccc23)OC[C@@H]1COC(C)=O	nt	28	-2	-1	i	-12	2	2
CCc1cc(=O)n2[nH]c(-c3ccccc3)c(-c3ccccc3)c2n1	-12	-11	9	-5	i	61	-11	-14
O=C(CC1C(=O)NC2CCCCC2N1C(=O)c1ccc([N+](=O)[O-])cc1)Nc1ccccc1 (configuration not stated)	nt	9	-4	-3	i	11	-3	-1
Cc1c(OCc2ccccc2)c(=O)ccn1Cc1ccc(F)cc1	nt	7	5	4	i	53	3	-7
CC(=O)Nc1ccccc1-c1nnc(SCc2ccccc2Cl)[nH]c1=O	-8	-9	-11	-1	i	-13	2	10
COc1cc(CNCCCN2CCOCC2)cc(Cl)c1OCC(=O)NC(C)(C)C	nt	-3	-1	1	i	6	5	-2
Cc1oc(-c2ccc(Cl)cc2)cc1C(=O)N1CCC1(C)C(=O)O (configuration not stated)	-21	-11	nt	nt	nt	nt	2	2
CS(=O)(=O)c1ccc(-c2nnc(NC(=O)c3ccco3)o2)cc1	2	18	nt	nt	i	-4	-6	2
CC(=O)C1=C(C)OC(N)=C(C#N)C1c1ccco1 (configuration not stated)	-13	nt	?	?	i	14	-15	3
CCOC(=O)N1CCC(=NNc2ccc(S(N)(=O)=O)cc2[N+](=O)[O-])CC1	8	-2	-2	-1	i	-17	0	2
CCOC(=O)CCCCC(=O)c1[nH]c(=O)[nH]c1CSc1nnc2c3ccccc3n(C(C)C)c2n1	-4	0	6	3	i	nt	-2	-1
Cc1ccccc1Nc1nc(-c2ccccc2)c(C(=O)Nc2cccnc2)s1	nt	-24	-2	16	i	17	-5	-3
Cn1c(SCc2nc(-c3ccccc3)no2)nnc1-c1ccco1	0	-26	-3	0	i	-1	-4	2
CCn1cc(C(=O)N2CCCC2)c(=O)c2cc(S(=O)(=O)N3CCC(C)CC3)ccc21	2	-5	-11	5	i	-18	3	5
Cc1nn(C)cc1C(=O)NNC(=S)Nc1ccc(Cl)cc1	-3	-24	1	18	i	-1	1	5
Cc1ccc([N+](=O)[O-])c(OCCN2CCNCC2)c1	nt	-5	-10	3	i	-8	2	7
Cc1cc(C)c2nc(NC(=O)C3CCCO3)sc2c1 (configuration not stated)	-30	nt	-4	-13	i	-3	1	-2
CCn1c2ccc(C)cc2c2nc3cc(C(=O)O)ccc3nc21	nt	nt	-2	-3	i	3	2	-7
COc1c2ccoc2nc2c(OC)cccc12	-5&1	nt	5	-4	+	-14	2	-4
CCOC(=O)C1=NNC(C(=O)c2ccccc2)C1c1ccc(C)cc1 (configuration not stated)	nt	1	5	-3	i	-6	0	1
CCCS(=O)(=O)c1nc(C)cc(C)c1S(C)(=O)=O	nt	-1	-4	-3	i	-14	2	0
Cc1ccc2c(c1)NC(=O)C(CC(=O)NCc1cccnc1)O2 (configuration not stated)	-9	-40	-19	8	i	-8	-1	4
COc1cccc(NC(=O)Nc2nnc(N3C(C)CCCC3C)s2)c1 (configuration not stated)	-21	25	-8	-5	i	3	-2	-8
O=[N+]([O-])c1cc(C(F)(F)F)ccc1Sc1ccc2ccccc2n1	-17	nt	2	3	nt	14	1	3
CC(C)(C)OC(=O)C[C@@H]1C/C=C\C[C@H](CC(=O)N[C@H](CO)Cc2ccccc2)C(=O)N[C@H](C(C)(C)C)COC1=O	-7	-13	nt	nt	nt	nt	-1	2
